Assay outcomes: PubChem, several laboratories
RanGTP-Impb inh – inhibitors of RanGTP-importin-beta interaction, primary screen, biochemical, FRET, CFP-Ran, YFP-importin-beta, homogeneous | cell-free CFP-Ran/YFP-importin-beta FRET ratio | inhibition, % (test concentration not listed) | actives 1.1% (n = 300,000);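 active means most replicates above 15%; inconclusive means exactly half above 15%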;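 further: 0% = DMSO wells and 100% = Ran loaded with GDP instead of GTP; wells of about 40 µL received 100 nL stock; the first replicate is given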
Beta apoptosis – blocks beta cell apoptosis. AID 435005. INS-1E cytokine-induced death, ATP luminescence, 48 h; percent of positive-control rescue, neutral wells zero. actives 0.8% (n = 300,000). protection from apoptosis, % (concentration not given with the values);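 active means all replicates at 75% or more, or half of them and the mean; inconclusive means half reach 75% but not the mean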;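 further: 0% = cytokine-treated negative control wells and 100% = positive control rescue; higher means more ATP so stronger rescue from cytokine killing; wells of about 40 µL received 100 nL stock; the first replicate is given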
MLL AF4-AF9 inh – MLL-AF4/AF9 protein interaction inhibition; inhibition, % at 10 µM; AlphaScreen, biotin-AF4 peptide binding to FLAG-AF9; actives 0.47% (n = 350,000);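 active means every replicate reaching a set inhibition limit, whatever the replicate mean, cut at about 25% in these data; inconclusive means mean inhibition reaches that limit but some replicates miss it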;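 further: 0% = plate neutral control median and 100% = total signal loss; the record names both 10 and 1 µM as test concentration; the first replicate is given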
Target sequence (P42568 whole entry, looked up): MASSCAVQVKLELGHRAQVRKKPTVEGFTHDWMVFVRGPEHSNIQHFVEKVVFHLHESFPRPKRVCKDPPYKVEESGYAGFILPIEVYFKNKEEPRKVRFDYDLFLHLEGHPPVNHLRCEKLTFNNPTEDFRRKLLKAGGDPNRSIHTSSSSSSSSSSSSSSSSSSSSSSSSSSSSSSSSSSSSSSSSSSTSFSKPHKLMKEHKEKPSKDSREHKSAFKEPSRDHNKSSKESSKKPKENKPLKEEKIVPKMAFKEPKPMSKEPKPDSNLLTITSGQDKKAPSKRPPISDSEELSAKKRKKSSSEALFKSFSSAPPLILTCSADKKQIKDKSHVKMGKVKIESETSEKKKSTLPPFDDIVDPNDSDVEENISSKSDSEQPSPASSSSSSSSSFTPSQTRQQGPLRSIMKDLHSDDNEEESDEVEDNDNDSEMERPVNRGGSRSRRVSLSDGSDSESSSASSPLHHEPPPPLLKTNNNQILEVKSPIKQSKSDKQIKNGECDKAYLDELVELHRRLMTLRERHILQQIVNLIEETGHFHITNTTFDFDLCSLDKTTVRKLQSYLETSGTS
LANA-H2B inh – blocks KSHV LANA binding to histone H2A/H2B | Q9QR71 | cell-free LANA-H2A/H2B peptide, fluorescence polarization | inhibition, % (concentration not given with the values) | actives 0.6% (n = 320,000) | AID 2629; in the data active means inhibition mostly above about 10%, no sharp cut-off; inactive means mostly below about 6.7%;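 further: stock transfer was 7.5 nL into about 10 µL; 0% = median of vehicle wells and 100% = median of positive control wells; one replicate is shown; the record names a cut of 25% in any replicate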
Calb FLC – affects C. albicans growth with fluconazole; C. albicans CaCi-2 (fluconazole-resistant clinical isolate) + fluconazole, Alamar Blue growth, 48 h; growth inhibition, % (concentration not given with the values); actives 0.57% (n = 300,000); AID 1979;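 active means most replicates above 75%; inconclusive means exactly half above 75%; inactive means most below 75%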;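 further: all wells also contain fluconazole at 8 µg/ml as a sub-toxic cotreatment; 0% = median of DMSO wells and 100% = median of geldanamycin control wells; wells of about 8 µL received 7.5 nL stock; the first replicate is given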
Vif A3G – inhibitors of Vif binding to APOBEC3G peptide, primary screen, biochemical, TR-FRET, GST-Vif 1-94, biotin-A3G peptide, dose response retest (AID 1117319). TR-FRET GST-Vif / biotin-A3G peptide binding; higher % means a stronger effect; test concentration not given here; strong numbers were not always called active. inhibition, %, or IC50 in µM where a hit was titrated. actives 0.57% (n = 260,000);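 active means above the screen mean plus three standard deviations and confirmed in dose response; inconclusive means results disagree or hit not tested in dose response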;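 further: Vif residues 1-94 fused to GST binding biotinylated APOBEC3G peptide 110-148; 0% = full assay without inhibitor and 100% = GST in place of GST-Vif; retest series ran down from 100 µM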
T cruzi inh – T. cruzi replication inhibition; T. cruzi beta-gal in NIH3T3, luminescence, 90 h; inhibition, % (test concentration not listed); actives 1.4% (n = 300,000); AID 1885;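 active means mean inhibition across valid replicates above about 55%, limit read from the data; inconclusive means mean below that limit but half or more replicates reach it; inactive means mean below it, under half of replicates reach it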;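 further: signal also drops with host cell toxicity which is not excluded here; 0% = plate median of DMSO wells and 100% = zero luminescence signal; higher percent means less beta-gal luminescence so fewer parasites; stock transfer was 50 nL into about 50 µL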
A1 inh – inhibitors of the anti-apoptotic protein A1, read as caspase activation. AID 2462. caspase activation, % (concentration not given with the values). actives 0.066% (n = 330,000). MEF A1-2A-BIM cells, Caspase-Glo 3/7 luminescence, 3 h; percent of clofoctol response, vehicle zero;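 active means over half of replicate activation scores above 10%, or exactly half above 10 with the replicate mean above 10; inconclusive means replicate mean below 10 yet half the replicates above 10; inactive means over half of replicates below 10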;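 further: wells of about 30 µL received 50 nL stock; many hits fall short of the cut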
An asterisk follows results filed as active; i = inactive; u = inconclusive; x = not tested or not shown; & = joins results of further samples.

SMILES	RanGTP-Impb inh	Beta apoptosis	MLL AF4-AF9 inh	LANA-H2B inh	Calb FLC	Vif A3G	T cruzi inh	A1 inh
CC1(C)CC2CC(C)(CN2C(=O)C23CCC(C)(C(=O)C2)C3(C)C)C1 (stereo not given)	1.8	-6	x	6.5	4	-4%	17	0.1
COc1ccc(C(CNC(=O)c2ccc(NS(=O)(=O)c3ccc(F)cc3)cc2)N2CCOCC2)cc1 (stereo not given)	-5.1	0	1.0	-2.5	0	x	4	1.0
CCOC(=O)c1sc(N2C(=O)C(O)=C(C(=O)c3ccc(C)o3)C2c2ccc(OC)c(OC)c2)nc1C (stereo not given)	-4.7	-13	4.3	-10	62	x	-14	-1.7
COC(=O)c1cc(NC(=O)CC2NC3CCCCC3NC2=O)cc(C(=O)OC)c1 (stereo not given)	1.7	9	x	-5.0	1	1%	-8	1.5
Cc1ccc(N(C)S(=O)(=O)c2c(C)[nH]c(C)c2C(=O)N2CCCC2)cc1	-1.4	-9	3.3	1.8	1	-7%	-11	0.1
CCc1cc(C(=O)N2CCCC(N3CCN(c4cccc(C(F)(F)F)c4)CC3)C2)n(C)n1 (stereo not given)	-0.3	17	1.0	-3.3	0	x	-14	0.4
Cc1ccc2nc(SCc3ccc([N+](=O)[O-])cc3)nc(C)c2c1	0.4	4	x	-14	27	10%	x	-0.2
Cc1ccc(-n2c(O)c(C=NCc3ccccn3)c3ccccc3c2=O)cc1	u	-1	-0.7	5.7	14	15%	-7	0.2
O=C(COc1ccc(S(=O)(=O)N2CCCC2)cc1Cl)NCc1cccnc1	3.5	-2	0.1	2.1	-8	x	13	0.5
CCOC(=O)C(NS(=O)(=O)c1ccccc1)(C(F)(F)F)P(=O)(OCC(C)C)OCC(C)C (stereo not given)	-5.0	-4	x	-0.7	-8	4%	-12	1.8
COCCCN1C(=O)C(=O)/C(=C(/O)c2ccc(S(=O)(=O)N3CCOCC3)cc2)C1c1ccc(Cl)cc1 (stereo not given)	7.4	-6	-8.0	-2.8	u	x	-10	0.8
COc1ccc(S(=O)(=O)N2CCC(C(=O)NCCc3c[nH]c4ccccc34)CC2)cc1	-0.2	-1	2.4	3.7	6	-1%	1	1.0
Cc1nnc(C)n1/N=C/c1cccs1	-0.9	-1	x	-4.0	-2	-2%	-3	0.2
CCOC(=O)C1=C(CNCc2ccc(C)cc2)NC(=O)NC1c1cc(C)ccc1C (stereo not given)	1.9	1	-3.6	-43	2	9%	-1	1.1
CC(C)(C)c1ccc(C(=O)c2c[nH]c(C(=O)NCc3cccs3)c2)cc1	-0.6	-5	x	-3.7	4	1%	1	0.4
CC1(C)CC(NC(=O)CC(c2ccccc2)c2ccccc2)CC(C)(C)N1	6.0	-5	x	-2.1	1	-4%	-4	-1.4
Cc1occc1C(=O)NNC(=O)c1ccc(S(=O)(=O)N(C)C)cc1	x	-5	0.1	0.7	x	6%	x	1.3
CCOc1ccc(C(=O)CCN2CCCCCC2)cc1	-0.9	x	x	-2.8	-4	-6%	9	-0.7
C=CCN(c1ccc(C(=O)Nc2ccc(C)cc2)cc1)S(C)(=O)=O	0.5	0	-1.2	3.5	-8	4%	2	-0.5
O=C(NNC(=O)c1cc2c(s1)CCCC2)c1ccccc1	-0.3	-4	0.2	2.9	16	x	3	-1.2
N#Cc1ccc(S(=O)(=O)Nc2ccccc2N2CCOCC2)cc1	x	-2	-2.1	-0.7	x	x	x	-0.3
CCC(C)NC(=O)CSc1nc2c(sc(=S)n2Cc2ccco2)c(=O)n1-c1ccccc1 (stereo not given)	5.9	13	x	-5.5	2	-9%	22	-0.9
COCCn1c(C)cc(C(=O)CN2CCCCC2)c1C	-2.8	0	0.9	3.4	-8	10%	4	0.2
COc1cc2ccc(=O)oc2c(O[C@@H]2O[C@H](CO)[C@@H](O)[C@H](O)[C@H]2O)c1O	119*	-1&-1	-4.0&-3.1	-1.4&-0.1	-10	-3%	-4	2.1&0.0
Cc1ccccc1OC(=O)c1cccnc1	-4.4	x	0.2	1.8	-4	-3%	-14	-0.3
CC(C)N(Cc1nc(-c2ccc(Cl)cc2)no1)C(=O)c1cccs1	-6.0	-9	x	-1.7	-13	2%	23	-0.3
Cc1ccc(S(=O)(=O)Nc2c(C)[nH]c(=O)[nH]c2=O)cc1C	-2.9	1	-2.2	1.9	-6	-6%	-4	-0.5
O=C(NNC1=NC2(CCCC2)Cc2ccccc21)c1cccnc1	-0.5	3	0.1	-3.2	-8	0%	-5	0.3
Fc1ccc(OCc2nnc(-c3ccccc3Br)o2)c(Cl)c1	1.7	-8	1.4	0.5	3	-18%	16	-0.7
CCOC(=O)c1c(N)ssc1=S	4.4	3	x	6.5	-4	0%&-4%	4	-0.5
O=C1C2CC=CCC2C(=O)N1Cc1nnc(-c2ccccc2Br)o1 (stereo not given)	-0.1	-3	-0.8	5.2	0	16%	-4	1.0
CC(C)(C)NC(=O)NC(=O)CSc1ccc(S(=O)(=O)N2CCCCC2)cn1	x	-4	-5.0	-0.5	x	u	x	1.3
Cc1cc(C)cc(C(=O)N2CCN(c3ccccn3)CC2)c1	u	-7	-4.8	-2.6	6	4%	-6	0.5
O=C1C2C3C=CC([C@@H]2C(=O)N1c1nccs1)C31CC1 (stereo not given in full)	-0.6	-7	x	-0.5	-3	6%	-20	1.1
COc1cc(NC(=O)C/C(C)=N/NC(=O)C(=O)NCCO)c(OC)cc1Cl	-5.8	-3	x	1.9	5	3%	-5	0.7
CC(C)N(Cc1ccccc1)C(=O)COC(=O)c1c(F)cccc1F	x	-3	4.0	-1.3	x	-1%	x	0.5
Cc1ccc(Nc2c(-c3ccc(N4CCOCC4)cc3)nc3cnccn23)cc1	-0.4	10	-35	-1.0	3	26%	-2	-0.2
CC1(C)CC2CC(C)(CN2C(=O)COC(=O)c2cccnc2Cl)C1 (stereo not given)	x	0	0.9	1.6	x	x	x	-1.0
C=CCn1c(COc2ccc(F)cc2)nnc1SCC(=O)NC(=O)NCc1ccco1	-1.4	-6	x	-0.8	6	41µM*	-6	0.0
CC(C)(C)c1ccc(NC(=O)COC(=O)c2ccc3ncsc3c2)cc1	x	-1	0.2	2.2	x	x	x	-1.4
Cc1ccc(S(=O)(=O)NCc2ccco2)cc1C	u	-2	x	4.1	1	0%	-14	0.3
CCCCN1C(=O)CC(N2CCOCC2)C1=O (stereo not given)	-0.7	-5	x	-1.6	3	2%	-2	-0.1
O=[N+]([O-])c1cccnc1Sc1ccccc1Cl	-3.3	x	6.1	-2.9	-12	x	-11	-0.5
CCOCCCNC(=O)c1cn2c3c(ccc(Cl)c3c1=O)OC(C)C2 (stereo not given)	2.8	x	5.5	x	-4	-3%	-12	x
Cn1nccc1C(=O)NC1CCCc2c1cnn2-c1cc(F)cc(F)c1 (stereo not given)	3.5	3	-0.6	1.2	-9	-1%	-20	-0.2
CC(C)Oc1ccc(Cl)cc1Nc1nc(NCCO)nc(N2CCCC2)n1	3.4	x	3.1	-1.5	6	x	17	-0.3
O=C(Cn1cc(C(F)(F)F)ccc1=O)Nc1ccc(N2CCOCC2)cc1	-2.1	-14	-3.9	3.8	-4	x	-12	-0.3
CC(C)(CO)Cc1cc(C(C)(C)C)c(O)c(C(C)(C)C)c1	x	0	-2.4	-3.9	x	x	x	-0.1
O=C(C(Cc1ccccc1)n1cccc1)N1CCN(c2cccc(Cl)c2)CC1 (stereo not given)	-2.9	1	-2.9	-2.5	2	-2%	18	-0.1
CC(C)(C)c1ccc(-c2nnc(SCC(=O)Nc3sc4c(c3C#N)CCCC4)o2)cc1	8.8	-5	-0.6	-0.5	-15	x	11	-0.4
CC1(C(=O)N/N=C/c2ccccc2)CC1(Br)Br (stereo not given)	-1.4	-8	3.6	-1.2	2	-4%	-9	-0.1
CCCC(=O)c1c[nH]c(C(=O)NCCc2ccccn2)c1	1.4	x	x	1.8	12	-3%	0	0.2
CC(=O)Nc1ccc(OCC(O)Cn2nc(C)c(C)c2C)cc1 (stereo not given)	-1.0	x	-1.6	-2.7	-5	1%	-11	-0.1
Cc1ccc(NC(=O)CN(C)C(=O)c2ccc(OCc3cn4ccccc4n3)cc2)cc1	x	0	0.8	10	x	x	x	-0.9
C/C(Cn1nnc([N+](=O)[O-])n1)=N\NC(=O)c1ccccc1Cl	-2.5	80*	-8.4	-2.2	9	-2%	56*	0.6
O=C(c1ccccc1)N(C(=O)c1ccccc1)c1ncnc2c1C(c1ccccc1)c1c(ccc3ccccc13)O2 (stereo not given)	x	10	-0.7	1.9	x	x	x	0.7
O=C(COc1ccc(Cl)cc1)Nc1nnc(-c2ccc3c(c2)CCCC3)o1	-0.1	x	1.3	-4.9	7	-5%	-9	-0.6
CCc1nc(SCC(=O)Nc2nnc(CC(C)C)s2)n[nH]1	-4.2	-13	-3.0	-0.8	1	x	-17	0.2
C[C@@]12CC(=O)NC1N(C(=O)c1cccc(C(F)(F)F)c1)C(c1ccccc1O)C2 (stereo not given in full)	-2.4	-8	x	2.3	-3	30%	2	1.0
N#Cc1c(NC(=O)CSc2nnnn2C2CCCCC2)sc2c1CCCC2	1.1	-1	x	7.2	3	76%	-1	0.3
(list continues)
SMILES	RanGTP-Impb inh	Beta apoptosis	MLL AF4-AF9 inh	LANA-H2B inh	Calb FLC	Vif A3G	T cruzi inh	A1 inh
O=C1NCCN1Cc1ccc(Cl)cc1	u	-5	-8.6	i	-11	0%	4	0.4
O=C(CCC(=O)Nc1ccc(F)cc1)N/N=C/c1ccc(O)cc1	-3.7	3	-1.2	-1.4	4	-1%	0	-0.5
O=C(Nc1cccc(-c2cn3ccsc3n2)c1)c1ccccc1	4.6	1	x	-3.6	-8	1%	-1	0.2
CC(C)[C@@H](C(=O)OCC(=O)Nc1ccc2c(c1)OCO2)N1C(=O)c2ccccc2C1=O	0.3	7	x	-1.8	-26	9%	0	-0.4
Cc1ccc(CNC(=O)c2cc3c(-c4ccc(Cl)cc4)nn(C)c3s2)o1	1.8	12	-7.2	3.1	0	-7%	15	0.3
O=C(Cn1ccc2ccccc2c1=O)NCC(=O)Nc1ccc(F)cc1F	-5.9	-1	-2.4	-6.6	0	x	-10	-0.4
Cc1sc(NC(=O)C2CSC3(C)CCC(=O)N23)nc1-c1ccc(F)cc1 (stereo not given)	3.8	10	-1.7	-0.8	-8	x	8	-0.1
CCOc1ncccc1C(=O)Nc1ccc(S(=O)(=O)N2CCCC2)cc1	1.8	1	-0.4	-9.4	-20	-7%	-2	0.6
O=C1CCCc2nc(NCc3ccco3)ncc21	8.2	-1	x	-8.3	-4	0%	-13	0.0
C=CCC(C)(NCc1ccccc1)c1ccco1 (stereo not given)	-1.9	-1	x	-0.8	-3	2%	-15	-0.3
Cc1cc(C)c(S(C)(=O)=O)c(Oc2ccc(F)cc2)n1	0.7	-7	x	-0.7	-3	u	-7	0.2
O=C(NCC(=O)N(c1ccccc1)C(C(=O)NC1CCCCC1)c1ccncc1)c1ccco1 (stereo not given)	-5.6	-9	x	2.6	-4	-6%	-2	-0.2
CCOC(=O)[C@H]1[C@H]2COc3ccc(Br)cc3[C@@H]2N2C(=O)c3ccc(C)cc3NC(=O)[C@@]12C	x	6	-5.2	5.4	x	x	x	0.2
CNC[C@@H]1Oc2ccc(NS(=O)(=O)c3ccc(Cl)cc3)cc2C(=O)N([C@H](C)CO)C[C@@H]1C	x	-3	-1.0&8.3	-1.8	x	x	x	0.7
